Screening results deposited in PubChem by National Center for Advancing Translational Sciences (NCATS).
VDR inh: vitamin D3 receptor (human) inhibition; P11473; VDR-SRC2-3 peptide fluorescence polarization, 2 h; Potency, µM, for the others: max response, negative = inhibition, usual class: inhibitors; actives 0.93% (n = 400,000); AID 504847; active means well fitted inhibition curve with a large enough effect; inconclusive means small, poorly fitted or top-dose-only effect, or another doubt; inactive means no such curve, though single readings can be large or run the other way; further: series mostly up to about 120 µM
Target sequence (P11473 whole entry, looked up): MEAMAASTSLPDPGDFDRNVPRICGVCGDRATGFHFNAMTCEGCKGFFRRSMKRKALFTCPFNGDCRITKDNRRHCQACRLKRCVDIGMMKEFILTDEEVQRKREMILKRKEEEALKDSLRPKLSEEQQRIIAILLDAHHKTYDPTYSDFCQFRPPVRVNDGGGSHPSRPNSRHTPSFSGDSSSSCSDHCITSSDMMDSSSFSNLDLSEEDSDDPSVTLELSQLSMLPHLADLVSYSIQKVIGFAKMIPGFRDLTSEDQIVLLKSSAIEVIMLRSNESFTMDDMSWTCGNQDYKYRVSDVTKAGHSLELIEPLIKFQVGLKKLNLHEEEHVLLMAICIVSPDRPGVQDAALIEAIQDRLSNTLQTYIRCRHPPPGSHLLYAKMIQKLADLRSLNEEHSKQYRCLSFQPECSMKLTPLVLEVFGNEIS
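VDR–SRC2-3 interaction, FP format. Cmpds 23 nl via pintool, brief spin, 2 h ambient incubation.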
The depositor's hits bear a star; ? = inconclusive; & = joins results of further samples. On the % scale 0 is the no-effect control and ±100 the full control effect; potency means the concentration at half of the fitted maximal effect. Some of the compounds tested. The share of hits here may be higher or lower than overall.

SMILES | VDR inh
CCOc1ccc(NC(=O)CCC(=O)c2ccc(-c3ccccc3)cc2)cc1 | -5%
CCOc1ccc(NC(=O)CN2CCN(CC(=O)Nc3ccc(F)cc3F)CC2)cc1 | 5%
O=C(Nc1ccccc1C(=O)O)c1cccc(S(=O)(=O)N2CCCC2)c1 | -2%
COc1ccccc1NC(=O)C1CCCN(C(=O)NCc2ccccc2)C1 (configuration not stated) | -18%
O=C(O)CCc1nc2cc(Cl)ccc2n(Cc2ccccc2)c1=O | -2%
CCC1C(=O)Nc2ccccc2N1C(=O)c1ccc(Cl)nc1 (configuration not stated) | 4%
COC(=O)CNc1nc(Cl)nc(NC2CCCCC2)n1 | 0%
CCOC(=O)c1cccc(NC(=O)CNC(=O)C2CCCCC2)c1 | 7%
CCCN1Cc2cccc(C(=O)NCCc3cccc(C)c3)c2C1=O | -15%
CC1(C)CC(=O)C(C=NCc2ccccn2)=C(O)C1 | 16%
CC(C)(C)OC(=O)N1Cc2ccccc2C[C@H]1C(=O)NCC(=O)NCC1CCCO1 (some centres not stated) | -10%
CC1CC(=O)N(CC(=O)Nc2ccc3c(c2)OCO3)c2ccccc2S1 (configuration not stated) | 4%
O=C(Nc1c(C(=O)N2CCCCC2)cnn1-c1ccccc1)c1ccccc1 | -7%
COc1ccc(/C=C\c2onc(C)c2S(=O)(=O)N2CCC(C(=O)Nc3ccc(F)cc3F)CC2)cc1 | -11%
COc1cccc(/C=C/c2[nH]c(=O)[nH]c(=O)c2[N+](=O)[O-])c1O | 22µM*
O=C(COC(=O)c1ccccc1)NC(=O)NC1CCCC1 | -5%
CCOc1ccccc1N(C(=O)c1snc(C(N)=O)c1N)C(C(=O)NCC1CCCO1)c1ccc2ncccc2c1 (configuration not stated) | 28%
CN(CC(=O)Nc1ccc(Cl)cc1)C(=O)CCC1CCCC1 | 15%
O=[N+]([O-])c1ccc(O)c(CSc2nnnn2-c2ccccc2)c1 | -6%
COc1cccc(NC(=O)c2cnn(-c3ccccc3)c2C)c1 | -9%

Next part; the last two above are carried over.
SMILES | VDR inh
O=[N+]([O-])c1ccc(O)c(CSc2nnnn2-c2ccccc2)c1 | -6%
COc1cccc(NC(=O)c2cnn(-c3ccccc3)c2C)c1 | -9%
CC(C)OP(=O)(OC(C)C)C(O)c1ccc2c(c1)OCO2 (configuration not stated) | -25%
COc1ccc(NC(=O)c2nc(C)c(C3(C)CC(c4ccccc4)=NO3)s2)cc1 (configuration not stated) | -13%
O=C(Nc1ccccc1)N(O)c1ccc(Cl)cc1 | 28µM*
CC(C)(C)C1=Nn2c(nnc2-c2n[nH]c3c2CCC3)SC1 | ?
Clc1ccc(Nc2nc(C3CC3)cs2)cc1 | -4%
O=C1OCc2cc(NC(=O)C3CCCO3)ccc21 (configuration not stated) | 1%
CCOC(=O)Cn1c(-c2ccc(OC)cc2)c(-c2ccc(OC)cc2)nnc1=O | -10%
O=C(NCCc1ccc2c(c1)OCCO2)c1ccccc1F | -14%
COc1cccc(-n2c(-c3ccc(C)cc3)cc3c2CC(C)(C)CC3=O)c1 | -8%
C[C@]1(C(=O)NCCN2CCOCC2)C=C[C@@H](Cc2ccccc2)N1C(=O)c1ccccc1 | 4%
O=C(O)c1ccc(NC(=O)C2C3CCC(C3)C2C(=O)O)cc1 (configuration not stated) | -1%
COc1cccc(NCc2cc(=O)oc3cc(C)c(C(C)C)cc23)c1 | 6%
COC(=O)c1cc(C(=O)Nc2nnc(CC(C)C)s2)cc([N+](=O)[O-])c1 | 4%
O=C(Nc1cccc(C(F)(F)F)c1)C(SCCO)c1ccccc1 (configuration not stated) | -9%
COc1ccc(C(=O)NC(NC(=O)c2ccc(OC)c(OC)c2)c2ccccc2F)cc1OC | -4%
COc1ccc(OCC(O)CNC(=O)c2ccc(C)cc2)cc1 (configuration not stated) | 10%
CCOc1ccccc1Oc1nc(-c2ccccc2O)nc2ccccc12 | 2%
COc1cc2c(cc1OC)C1C/C(=N\O)C(CC(C)C)CN1CC2 (configuration not stated) | 1%
O=C(O)c1ccc(OCc2cn3ccccc3n2)cc1 | -5%
COc1cc(/C=C/C(=O)O)cc(S(=O)(=O)Nc2cccc(SC)c2)c1OC | 1%
CN(CC(=O)Nc1ccc(Cl)cc1)C(=O)c1ccc(-n2cncn2)c([N+](=O)[O-])c1 | -4%
CCCC(NS(=O)(=O)c1ccc(C)cc1)C(=O)O (configuration not stated) | 1%
COC(=O)CN1C(=O)C(O)(CC(=O)c2ccc(Cl)cc2)c2ccccc21 (configuration not stated) | -12%
Cc1cc(C)n(Cc2ccc(C(=O)NN)o2)n1 | -18%
CNc1nc(OCC#N)nc(N2CCCCC2)n1 | -8%
CCC1SC2=NCCN2C1(O)c1ccc(Cl)cc1 (configuration not stated) | 19%
NS(=O)(=O)c1ccc(NC(=O)COc2ccc(S(=O)(=O)NC3CCCCC3)cc2)cc1 | -12%
c1ccc(Cc2nc(-c3ccccn3)no2)cc1 | 3%
Cc1cc(S(=O)(=O)NCC(C)C)ccc1OCC(=O)NCc1ccco1 | 13%
CSc1nc(Nc2ccc(C)cc2C)cc(-c2ccccc2)n1 | 7%
O=C(Nc1ccc(Cl)cn1)c1ccc2[nH]c(=O)c(=O)[nH]c2c1 | 9%
CCN1CCN(C(c2ccccc2)c2c(O)cc(C)n(CCOC)c2=O)CC1 (configuration not stated) | 10%
CC(=O)C[C@H]1c2ccccc2S(=O)(=O)N1C1CCCC1 | 2%
COCCn1c(=O)c(CCc2ccccc2)nc2cnc(Oc3ccccc3)nc21 | 1%
COc1ccc(CCNC(=O)c2cc(COc3c(C)cccc3C)on2)c(OC)c1 | 4%
CCOc1ncccc1C(=O)NNC(=O)c1ccccc1-n1cccc1 | 8%
COCCN(C(=O)c1ccc(N2C(=O)c3ccccc3C2=O)cc1)c1c(N)n(CC(C)C)c(=O)[nH]c1=O | -8%
Cc1ccc(CNC(=O)CC(C)S(=O)(=O)c2cc3c(cc2C)NC(=O)CO3)cc1 (configuration not stated) | 8%&-10%
O=C(c1cc(-c2ccc(Cl)cc2)n(-c2ccc(Cl)c(Cl)c2)n1)N1CCOCC1 | -7%
O=C(O)CCS(=O)(=O)c1ccccc1Cl | 0%
CCN1CCCC1CN(Cc1cc2ccc(C)cc2[nH]c1=O)C(=S)Nc1ccc(OC)cc1 (configuration not stated) | -3%
Cc1cc(C)c(NC(=O)COC(=O)C2CCC2)c(Cl)c1 | -4%
COc1ccc(N2CCN(C(=O)COc3ccc(Cl)cc3Cl)CC2)cc1 | 20%
O=P(c1ccccc1)(c1ccccc1)c1nc(-c2ccccc2)oc1NCc1ccccc1 | -1%
Cc1cccc(CCNS(=O)(=O)c2ccc3c(c2)n(C)c(=O)c(=O)n3C)c1 | -8%
Cn1c(=O)c(C(=O)CCl)c(N)n(Cc2ccccc2)c1=O | -10%
COc1cccc(N2CCN(C(=O)CCNS(=O)(=O)c3ccc(F)c(F)c3)CC2)c1 | -3%
Cn1c(SCC(=O)Nc2cccc(C(=O)O)c2)nnc1-c1cc2cc(Br)ccc2o1 | 8%
COc1ccc(CNC(=O)c2ccc(SC)cc2OC)cc1 | 7%
COc1ccc(C)cc1C(=O)CCC(=O)NCCc1ccc(S(N)(=O)=O)cc1 | 9%
Remaining list, next part:
SMILES | VDR inh
CC(OC(=O)c1cc(=O)c2ccccc2o1)C(=O)c1ccccc1 (configuration not stated) | -3%
CC1CC(C)(C)NC(=S)N1CC(=O)NCc1ccc(F)cc1 (configuration not stated) | 10%
CN1CCN(Cc2ccc(OCc3ccccc3)cc2)CC1 | 0%
COC(=O)CNC(=O)CSc1nnc2cc(C)c3ccccc3n12 | 16%
CC(=O)Nc1ccc(N(C)C)cc1[N+](=O)[O-] | 15%
CN(C)CCOC(=O)c1ccc2[nH]c3c(c2c1)CSCC3 | -4%
CC(=O)N(CN1C(=O)CCC1=O)c1cccc(Cl)c1 | -14%
COc1ccccc1N1CCN(Cc2cccc(OC)c2OC)CC1 | -5%
Cc1ccc(CCCOC(=O)C[N+]2(C)CCCCC2)cc1 | -15%
Cc1ccc(N2NC(=O)/C(=C/C=C/c3ccco3)C2=O)cc1C | -18%
O=c1sc(Nc2ccccc2)nc2ccccc12 | -11%
COc1cc2[nH]c(=S)n(CCCN3CCOCC3)c(=O)c2cc1OC | 19%
COc1cccc(OCC(=O)Nc2ccccc2-c2ccccc2)c1 | 20%
CCSc1nc2ccc(C)cc2cc1C#N | -5%
COc1cccc(CN(C)C(=O)c2sccc2-c2ccccc2)c1OC | -4%
CN(C)C(=O)c1ccccc1-c1ccccc1 | -10%
CC(C)NC(=O)C1(c2ccccc2)CC1(Cl)Cl (configuration not stated) | -28%
COc1ccccc1/C=C/C1NC(=O)NC(C)=C1C(=O)OC(C)C (configuration not stated) | 5%
CC(C)CN1CCC(=O)N(C(CSc2ccc(Br)cc2)c2ccccc2)CC1 (configuration not stated) | ?
Cc1nc2cnc(Nc3ccccc3)nc2n(C)c1=O | 3%
COc1ccc(NC(=S)NCCN2CCOCC2)cc1 | -5%
COc1ccc(-c2[nH]c(-c3ccc(C(=O)O)cc3)nc2-c2ccccc2)cc1 | 2%
Cc1ccc(CNc2ccc3c(c2)nc(C)n3C)cc1 | 19%
COCCn1c(=O)c(-c2ccc(Cl)cc2)nc2cnc(Oc3cccc(Cl)c3)nc21 | -3%
Cc1ccccc1CNC(=O)c1ccc2ccccc2n1 | 0%
CCOC(=O)C1=C(C)Nc2ccccc2N=C1NC(=O)Cc1ccc(OC)cc1 | 5%
O=C(Nc1cccnc1)C1(c2ccccc2)CCCC1 | 0%
COCCN(C(=O)C(C)N1C(=O)c2ccccc2C1=O)c1c(N)n(CC(C)C)c(=O)[nH]c1=O (configuration not stated) | -8%
O=C1O/C(=C/Br)CCC1c1cccc2ccccc12 (configuration not stated) | 18µM*
COc1cccc(CN(CC2CCCO2)S(=O)(=O)c2ccc(S(=O)(=O)N(C)C)cc2)c1 (configuration not stated) | 24%
O=C(Nc1c(-c2ccc(F)cc2)nc2ccccn12)c1ccccc1F | 6%
Cc1cc(/C=N/NC(=O)c2c(Br)cnn2C)c(C)n1-c1cccc(Br)c1 | 5%
O=c1[nH]c(=O)c2nc3ccccc3nc2[nH]1 | 5%&12%
Cc1ccc(NC(=O)Cc2nc(CN(C)CC(=O)Nc3ccc(C)cc3)cs2)cc1 | 13%
COc1cccc(CNC(=O)C2CCCN(c3nn4c(=O)cc(C)nc4s3)C2)c1 (configuration not stated) | -13%
COC(=O)[C@@H]1C[C@H]2CC[C@H](O)C[C@H]2N1Cc1ccc(N2CCN(C)CC2)cc1 | 2%
C=CCN1CCN(C(c2ccccc2)c2nnnn2CCC(C)C)CC1 (configuration not stated) | ?
Cc1ccc(-c2c(C)cc3oc(=O)cc(-c4ccccc4)c3c2C)cc1 | 1%&-15%
CCOc1cc(C2CC(=O)NC3=C2C(=O)C(C(=O)OC)C(C)C3)cc(Br)c1O (configuration not stated) | 13%
CCOc1ccccc1Nc1nc(N)nc(CN2CCCCC2C)n1 (configuration not stated) | 2%
CCCCCCCCCCCCN1[C@@H](CC(=O)OC)c2cc(C(F)(F)F)ccc2S1(=O)=O | -8%
O=C(N/N=C/c1cccc([N+](=O)[O-])c1)c1cc2ccccc2o1 | -29%
CCOC(=O)N1CCC(N2Cc3cccc(C(=O)Nc4ccccc4OC)c3C2=O)CC1 | -3%
Cc1cc(NC(=O)CSc2nnc(-c3ccc(O)cc3)o2)no1 | 16%
CCOC(=O)c1cnc2c(ccc3ccccc32)c1Nc1ccc(C(C)=O)cc1 | 2%
Cc1ccc(/C(O)=C2/C(=O)C(=O)N(CCN3CCOCC3)C2c2cccs2)cc1 (configuration not stated) | 1%
CCn1cc(C(=O)NCCOC)c(=O)c2cc(S(=O)(=O)N3CCOCC3)ccc21 | 20%
CC(C)CNS(=O)(=O)c1ccc(CCC(=O)NC2CCCCC2)cc1 | 2%
Cc1ccc(NC(=O)C(c2ccc(Cl)cc2Cl)N2CCCC2)cc1 (configuration not stated) | -17%
Cc1cc(C)cc(NC(=O)CSc2cc(C)[nH]c(=O)n2)c1 | 4%
CCN1C(=O)c2cccc3cccc1c23 | -10%

Compounds from the list above that contain a Cl atom, in the order listed:
SMILES | VDR inh
O=C(O)CCc1nc2cc(Cl)ccc2n(Cc2ccccc2)c1=O | -2%
CCC1C(=O)Nc2ccccc2N1C(=O)c1ccc(Cl)nc1 (configuration not stated) | 4%
COC(=O)CNc1nc(Cl)nc(NC2CCCCC2)n1 | 0%
CN(CC(=O)Nc1ccc(Cl)cc1)C(=O)CCC1CCCC1 | 15%
O=C(Nc1ccccc1)N(O)c1ccc(Cl)cc1 | 28µM*
Clc1ccc(Nc2nc(C3CC3)cs2)cc1 | -4%
CN(CC(=O)Nc1ccc(Cl)cc1)C(=O)c1ccc(-n2cncn2)c([N+](=O)[O-])c1 | -4%
COC(=O)CN1C(=O)C(O)(CC(=O)c2ccc(Cl)cc2)c2ccccc21 (configuration not stated) | -12%
CCC1SC2=NCCN2C1(O)c1ccc(Cl)cc1 (configuration not stated) | 19%
O=C(Nc1ccc(Cl)cn1)c1ccc2[nH]c(=O)c(=O)[nH]c2c1 | 9%
O=C(c1cc(-c2ccc(Cl)cc2)n(-c2ccc(Cl)c(Cl)c2)n1)N1CCOCC1 | -7%
O=C(O)CCS(=O)(=O)c1ccccc1Cl | 0%
Cc1cc(C)c(NC(=O)COC(=O)C2CCC2)c(Cl)c1 | -4%
COc1ccc(N2CCN(C(=O)COc3ccc(Cl)cc3Cl)CC2)cc1 | 20%
Cn1c(=O)c(C(=O)CCl)c(N)n(Cc2ccccc2)c1=O | -10%
CC(=O)N(CN1C(=O)CCC1=O)c1cccc(Cl)c1 | -14%
CC(C)NC(=O)C1(c2ccccc2)CC1(Cl)Cl (configuration not stated) | -28%
COCCn1c(=O)c(-c2ccc(Cl)cc2)nc2cnc(Oc3cccc(Cl)c3)nc21 | -3%
Cc1ccc(NC(=O)C(c2ccc(Cl)cc2Cl)N2CCCC2)cc1 (configuration not stated) | -17%
